Screening results as filed in PubChem BioAssay.
Yeast UUG start = modulators of yeast start codon fidelity, primary screen, whole organism, S. cerevisiae, single point, plate reader | 0.13% of 350,000 active | activity score, % at 18.7 µM | S. cerevisiae UUG-firefly luciferase reporter, luminescence/redox ratio;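 active means replicate mean at a twofold rise or more, about +100% in these data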;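 further: firefly luciferase made from a UUG start codon reports start codon fidelity; reporter light over untreated wells divided by growth signal over untreated wells; some hits fall short of that in this replicate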
Rce1 inhib = yeast Rce1p protease inhibitors, primary screen, biochemical, fluorescence, cell-free homogeneous | CAAX prenyl protease 2 (Saccharomyces cerevisiae (strain ATCC 204508 / S288c)), Q03530 | yeast membranes, quenched prenylated peptide cleavage fluorescence | calls only | 0.27% of 290,000 active | AID 2563, 2010;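 active means fall in fluorescence gain of 50% or more versus controls, with final raw signal at or below 3038400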;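 further: plate controls were neutral control wells for no effect and wells lacking membranes for full effect; tested at 10 µM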
Target sequence (Q03530 whole entry, looked up): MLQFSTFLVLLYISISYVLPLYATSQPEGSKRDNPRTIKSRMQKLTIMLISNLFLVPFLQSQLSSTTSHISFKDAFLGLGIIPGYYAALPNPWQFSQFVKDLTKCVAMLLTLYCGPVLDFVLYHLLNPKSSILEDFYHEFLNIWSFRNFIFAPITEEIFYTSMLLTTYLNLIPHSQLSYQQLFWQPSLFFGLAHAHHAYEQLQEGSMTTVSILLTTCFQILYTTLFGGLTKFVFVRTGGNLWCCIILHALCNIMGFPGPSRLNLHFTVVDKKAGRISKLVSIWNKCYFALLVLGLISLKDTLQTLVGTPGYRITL
eIF4H FP inh = human eIF4H binding inhibitors, primary screen, translation initiation inhibitor project, biochemical, uHTS, fluorescence polarization | eIF4H fluorescence polarization binding assay | 0.94% of 290,000 active | inhibition, % at 35 µM | Eukaryotic translation initiation factor 4H (Homo sapiens), Q15056;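 active means 50% or more with normal probe brightness, or confirmed in later tests; about a fifth of its hits are not listed in these tables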;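 further: calls also rest on retests at 20 µM and on dose response follow-up; 0% = protein and probe with vehicle and 100% = probe without protein; strong numbers were not always called active; many hits fall short of the cut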
MT1-MMP act inh = blockers of MT1-MMP proenzyme processing, primary screen, HT1080 RFP-PRO-GFP cells, GFP/RFP fluorescence | AID 651647, 2012 | 0.061% of 360,000 active | GFP/RFP ratio fluorescence, overnight; percent of plate control window, DMSO zero | GFP/RFP ratio change, % at 20 µM | Matrix metalloproteinase-14 (Homo sapiens), P50281;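 active means GFP/RFP ratio change of at least 30% with cell ATP level not reduced by more than half and red fluorescence within 50% of control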; further: strong numbers were not always called active
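Material: RFP-PRO-GFP reporter HT1080 cells. Dosing: single-point 20 µM compound, 1% DMSO. Controls: DMSO and RFP-L50D-GFP cell wells. Timing: cells overnight before dosing, compound overnight, 37 °C, 5% CO2. Measure: GFP/RFP fluorescence ratio.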
CSC inhib = cancer stem cell viability inhibitors, primary screen, luminescence; 1.1% of 300,000 active; cancer stem cell-like cells viability; inhibition, % at 7.5 µM;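 active means mean at 75% or more and at least half the replicates too; tested in HMLE shEcad cells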;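 further: 0% = median of negative and 100% = median of positive control wells; the first replicate is given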
HIV Env fusion = inhibitors of HIV-1 Env-driven cell-cell fusion, primary screen, HeLa-JRFL effector, CEM21 target cells, luciferase; 1.1% of 360,000 active; inhibition, % at 12.3 µM;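 active means mean replicate inhibition score of at least 50 and every replicate individually at or above 50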;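 further: 0% = plate neutral controls and 100% = maraviroc near 300 nM; one replicate is shown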
PABP polyA inh = PABP poly(A) RNA binding inhibitors, primary screen, biochemical, fluorescence polarization, uHTS; 1% of 290,000 active; Polyadenylate-binding protein 1 (Homo sapiens), P11940; inhibition, % at 35 µM;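 active means 50% or more with normal probe brightness, or confirmed in later tests; about a fifth of its hits are not listed in these tables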;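 further: calls also rest on retests at 20 µM and on dose response follow-up; controls were probe without protein and protein plus probe with vehicle; some compounds called inactive have numbers as strong as hits; many hits fall short of the cut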
Target sequence (P11940 whole entry, looked up): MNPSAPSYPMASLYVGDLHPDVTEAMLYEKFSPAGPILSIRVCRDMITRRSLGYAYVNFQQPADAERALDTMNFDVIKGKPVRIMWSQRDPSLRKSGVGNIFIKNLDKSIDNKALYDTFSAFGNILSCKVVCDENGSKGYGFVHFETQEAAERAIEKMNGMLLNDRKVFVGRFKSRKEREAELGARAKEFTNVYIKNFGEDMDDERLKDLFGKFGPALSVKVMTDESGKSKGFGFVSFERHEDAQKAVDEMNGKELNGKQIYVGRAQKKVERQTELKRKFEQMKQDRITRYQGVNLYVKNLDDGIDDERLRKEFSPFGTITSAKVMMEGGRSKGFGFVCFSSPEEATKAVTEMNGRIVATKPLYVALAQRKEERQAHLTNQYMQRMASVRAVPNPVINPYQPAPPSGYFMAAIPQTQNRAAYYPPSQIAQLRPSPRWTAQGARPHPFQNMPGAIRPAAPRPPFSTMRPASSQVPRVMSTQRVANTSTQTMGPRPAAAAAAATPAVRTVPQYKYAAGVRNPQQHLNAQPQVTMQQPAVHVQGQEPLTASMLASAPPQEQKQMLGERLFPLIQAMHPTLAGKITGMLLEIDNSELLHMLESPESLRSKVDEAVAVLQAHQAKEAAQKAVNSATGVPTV
MT1-MMP act inh RFP = further read-out of MT1-MMP act inh, marked with its call; RFP signal change, %; measured here: RFP expression control read;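 0 = vehicle wells; hits needed this value within 50% of zero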
* hit, by the source's call; i = inactive; x = not tested or not shown; & = joins results of further samples.

item	SMILES	Yeast UUG start	Rce1 inhib	eIF4H FP inh	MT1-MMP act inh	MT1-MMP act inh RFP	CSC inhib	HIV Env fusion	PABP polyA inh
1	O=S(=O)(c1cccc2nonc12)N1CCCCCC1	x	i	-4	-1	3	-6	0	-4
2	OCCNc1nc2nonc2nc1NCCO	x	i	9	0	4	-8	-5	15
3	O=C(NNC(=O)c1ccc2nc[nH]c2c1)c1ccccc1	-18	x	x	-1	0	-1	x	x
4	Cc1ccc(C)c(-c2nnc(NC(=O)CCS(=O)(=O)c3ccc(F)cc3)o2)c1	x	i	x	-6	-1	28	-70	x
5	O=C(O)C1C2C=CC(C2)C1C(=O)N1CCN(C/C=C/c2ccccc2)CC1 (configuration not stated)	13	i	-6	6	-1	4	x	-2
6	c1ccc(Oc2ccc(-c3cc(NCCc4cccnc4)n4nccc4n3)cc2)cc1	-12	x	x	8	10	x	-17	x
7	C[C@H](/C=C/[C@@]1(O)[C@H](C)C[C@H](O)CC1(C)C)O[C@@H]1O[C@H](CO)[C@@H](O)[C@H](O)[C@H]1O	-20	i	x	3	6	4	x	x
8	CCCCCCC(=O)N(O)C1CC(=O)N(Cc2ccccc2)C1=O (configuration not stated)	1	i	3	-1	-1	x	41	-3
9	COc1ccccc1-n1cnnc1SCc1csc(-c2ccccc2)n1	x	x	-7	1	-2	0	x	-3
10	Cc1ccc(CSC2=Nc3ccccc3C3=NC(CCC(=O)NCc4ccco4)C(=O)N23)cc1 (configuration not stated)	-3	x	1	-4	-3	-1	55	7
11	COc1ccc(-c2nc(SCC(=O)NCc3ccco3)c(-c3ccccc3)[nH]2)cc1OC	-3	i	-2	-3	-3	3	-126	-2
12	CN(C)S(=O)(=O)c1ccc(C(=O)NC2CCCc3ccccc32)cc1 (configuration not stated)	-13	i	-1	3	5	3	8	14
13	Cc1ccccc1OCC(=O)N/N=C/c1ccc(N(C)C)cc1	-11	i	-14	3	-2	32	-6	-12
14	O=C(O)COc1ccccc1/C=N/NC(=O)CSc1nc2ccccc2n1Cc1ccccc1	-20	i	-6	4	-7	2	-4	-5
15	COc1cc(CNC2CCCCC2OC)cc(OC)c1 (configuration not stated)	-5	i	3	2	4	-10	-4	-2
16	CC(Sc1nnc(-c2ccco2)n1N)C(=O)NCc1ccc2c(c1)OCO2 (configuration not stated)	31	x	x	-1	3	x	-53	x
17	COc1ccc(-n2sc3ccc(F)cc3c2=O)cc1	-33	x	x	8	-4	31	1	x
18	Cc1ccc(S(=O)(=O)N(Cc2cccc(C)c2)C(=O)N2CCN(C)CC2)cc1	-13	i	x	-3	3	-6	20	x
19	COC(=O)c1ccc(/C=N/Nc2nc(C)c(C)s2)cc1	-40	i	-3	0	-1	-3	-108	-6
20	Cc1cc2sc3ccc(C#CC4(O)CCCCC4)cc3c(=O)c2cc1C	-9	i	x	-3	-21	0	65*	x
21	COc1ccc(C(=O)CCC(=O)Nc2cc(Cl)c(O)c(Cl)c2)cc1	-14	i	13	6	3	-17	-1	4
22	COc1ccc(CC2SC(=Nc3ccc(F)cc3)NC2=O)cc1 (configuration not stated)	x	i	-4	-1	0	3	-5	-15
23	O=c1[nH]nc(Cc2ccccn2)c2ccccc12	3	i	-7	-1	-3	-9	1	6
24	COc1ccc(/C=C/C(=O)OCC(=O)Nc2ccc(Cl)c(S(=O)(=O)N(C)C)c2)cc1OC	x	i	-1	3	4	4	x	1
25	O=C(/C=C/NCc1ccc(F)cc1)c1ccccc1	x	i	2	-1	3	14	x	44
26	O=C(Nc1cccc(O)c1)c1cccc(S(=O)(=O)Nc2cccc(O)c2)c1	-2	i	-7	1	-3	-17	8	4
27	Cc1cccc(NC(=O)CSCC(=O)Nc2nnc(C3CC3)s2)c1	3	i	-15	5	4	-8	8	-12
28	CN1CCN(C2CCCCCC2)CC1	x	i	-6	-1	-1	15	-42	-6
29	Cn1cccc1/C=C1\SC(=Nc2cccc(O)c2)NC1=O	-27	i	7	-2	-10	50	-98	-11
30	COc1ccc(C(c2nnnn2CCc2ccccc2)N2CCN(C)CC2)cc1OC (configuration not stated)	x	i	-2	-1	4	x	x	1
31	CCC(=O)NC(=S)Nc1ccc(-c2nc3ccccc3s2)cc1	x	i	-3	4	1	-19	x	8
32	COc1ccc(-c2nc(CS(=O)CC(=O)NC3CCCC3)c(C)o2)cc1 (configuration not stated)	x	i	-18	-2	3	-6	-2	5
33	COCCCNC(=O)Cn1nc(-c2ccccc2OC)ccc1=O	-2	i	-10	2	4	-10	x	7
34	Nn1c(SCC(=O)Nc2ccc3c(c2)OCCO3)nnc(CCC(=O)O)c1=O	-5	i	-10	-3	2	-3	9	18
35	CN(C)c1cc(NC(=O)CN2CCCC2)c2ccccc2n1	-9	i	-9	2	-1	0	-42	18
36	CC(C)C(=O)N=C1NC(=O)CS1	x	x	3	2	7	-10	-4	13
37	COC(=O)c1ccc(OC)c(CSc2nnc(COc3ccc(Cl)cc3)o2)c1	-18	i	-6	-1	-6	11	60*	2
38	CN=c1c([N+](=O)[O-])nn(-c2ccc3c(c2)OCCO3)n1O	x	i	-8	-3	-1	1	-10	10
39	COc1ccc(-c2c(-c3cc(OC)cc(OC)c3)n(C)c3ccc(-c4cnc(OC)nc4)cc23)cc1	-17	x	x	-12	-1	39	10	x
40	O=c1c(=O)n(O)c2ccccc2n1O	-14	i	20	6	4	5	-43	2
41	O=C(COC(=O)c1ccc(Cl)nc1)NCc1ccco1	x	i	-15	-1	2	0	2	-2
42	CCCCn1c(N)c(N(CC(C)C)C(=O)CN(C)Cc2cccc(OC)c2)c(=O)[nH]c1=O	-4	i	1	2	2	-10	x	-3
43	CCc1cc(CNC(=O)c2cc(COc3ccc(C)nc3)on2)on1	-20	x	-10	1	-2	-8	3	2
44	COc1ccc(Cc2nnc(NC(=O)c3cc(OC)cc(OC)c3)s2)cc1	-2	i	-14	-3	-9	58	-13	-6
45	Cc1cc2nnc(SCc3ccc4c(c3)OCO4)n2c2ccccc12	-23	x	x	-1	-1	x	1	x
46	CC1C(c2ccccc2)OCCN1C(=S)Nc1ccc(S(=O)(=O)N2CCCCC2)cc1 (configuration not stated)	-26	x	x	10	-1	x	17	x
47	Oc1ccc(N2CCN(c3ccnc4cc(Cl)ccc34)CC2)cc1	-8	i	-8	-8	-8	-1	22	2
48	CCOC(=O)/C(C#N)=C/C1=C(N2CCCC2)CC(C)(CC)OC1 (configuration not stated)	-1	i	-1	-2	3	-13	x	14
49	O=C1CCc2cc(S(=O)(=O)NCCCC(=O)N3CCN(Cc4ccc5c(c4)OCO5)CC3)ccc2N1	x	i	3	2	0	1	-2	-3
50	CCc1ccc(-n2c(=O)c3ccccc3n(CC(=O)C(C)(C)C)c2=O)cc1	x	i	-11	0	-1	-12	12	-1
51	O=C(O)c1ccc(NC(=O)c2cn(-c3ccccc3)nc2-c2ccc(Br)cc2)cc1	x	i	5	7	-3	10	12	3
52	Cc1ccc(S(=O)(=O)N2CCN(C(=O)N3CCCC3)CC2)cc1	7	i	3	4	0	x	-5	-1
53	CCn1c(SCC(=O)N/N=C/c2ccc(C)o2)nnc1-c1ccc(C(C)(C)C)cc1	x	i	33	3	-7	26	4	1
54	COc1ccccc1Cc1c(-c2ccco2)nc2ccc(Br)cn12	-32	x	x	-8	-5	x	2	x
55	Cc1ccc(OCc2ccc(C(=O)N3CCCC3)o2)c([N+](=O)[O-])c1	-15	i	-4	4	-2	-12	-6	-2
56	CN(CC(=O)Nc1cccc(F)c1)C(=O)c1cccc(N2C(=O)CCC2=O)c1	-5	x	x	-3	0	x	-42	x
57	Cc1ccc(S(=O)(=O)n2c(N)nc3cc(C)c(C)cc32)cc1	1	x	x	5	-3	x	-26	x
58	CCC1(C)CC(C(CC(=O)O)c2ccc(C)cc2)CCO1 (configuration not stated)	-1	i	3	-2	-2	-9	-59	-6
59	COc1ccccc1N1CCN(CC(O)c2c(C)[nH]c3ccccc23)CC1 (configuration not stated)	-8	i	-2	2	5	1	-1	-8
60	Cc1ccc(CNC(=O)CCC(=O)N2CC(C)Oc3ccccc32)cc1 (configuration not stated)	15	i	-7	10	4	8	-42	-6

Next section
item	SMILES	Yeast UUG start	Rce1 inhib	eIF4H FP inh	MT1-MMP act inh	MT1-MMP act inh RFP	CSC inhib	HIV Env fusion	PABP polyA inh
61	CC[n+]1c(/C=C2\C=C(C)CC(C)(C)C2)sc2ccccc21	11	i	6	-10	2	31	x	15
62	C=CCn1c(COc2ccccc2C)nnc1SCC(=O)O	13	i	-14	2	5	-6	x	20
63	On1c(-c2ccc(Cl)cc2Cl)nc2ncccc21	-11	i	14	-4	-2	-15	8	2
64	COc1ccc(F)cc1-c1cc(C(=O)NCc2ccc(C(F)(F)F)cc2)[nH]n1	-14	x	x	1	-1	x	-9	x
65	O=C(CCc1nnc2ccc(N3CCC4(CC3)OCCO4)nn12)NCc1ccccc1Cl	-2	i	-2	-1	-1	-13	-4	5
66	COCc1c(C(=O)NC2CCCCC2)sc2cccc(F)c12	2	x	x	-5	-5	x	-36	x
67	CCn1c2ccccc2c2cc(NC(=O)CSc3nnc(-c4ccc(OC)cc4)n3N)ccc21	-15	i	-6	3	-1	11	-105	2
68	C#CCn1c(=O)c2c(ncn2C)n(C)c1=O	-10	i	x	2	2	-11	72*	x
69	NC(=O)CCC(NC(=O)c1ccc(Cl)cc1)C(=O)NCCc1ccc2c(c1)OCCO2 (configuration not stated)	-4	x	x	0	4	x	10	x
70	COc1ccc(CN(C)S(=O)(=O)c2nnc(NC(=O)c3cccc(C)c3)s2)cc1OC	-13	i	-7	-16	-5	-21	11	-3
71	CC(NC(=O)COC(=O)CCc1nc2ccccc2c(=O)[nH]1)c1ccccc1 (configuration not stated)	-5	i	2	-3	0	1	5	3
72	COc1ccc(C(C(=O)NC2CCCCC2)N(C(=O)c2ccco2)c2ccccc2C(C)=O)cc1OC (configuration not stated)	7	i	0	1	2	x	-12	6
73	CCc1ccc(C2NC(=S)NC3=C2C(=O)CCC3)cc1 (configuration not stated)	x	i	7	1	-2	-8	35	13
74	O=C(CSc1nnnn1Cc1ccccc1)NC1CCCCC1	x	i	10	2	0	-9	2	3
75	O=C(O)c1cnc(-c2ccccc2)nc1Sc1ccccc1Cl	-12	x	13	2	0	19	-40	1
76	Cc1cc2oc3c(c(=O)c2cc1C)C(c1cccc(Br)c1)N(Cc1ccco1)C3=O (configuration not stated)	-11	i	-9	-7	-12	14	x	-1
77	Cc1cccc(-n2c(CNC(=O)COc3ccccc3)nnc2SCC(=O)Nc2nccs2)c1	-9	x	10	-4	-3	8	x	5
78	COc1cccc(NC(=O)N(C)C[C@H]2OCc3cn(nn3)CCCC(=O)N([C@@H](C)CO)C[C@@H]2C)c1	-12&8	x	x	1	1	x	0	x
79	Cc1ccc2nc(SCC(=O)N/N=C/c3ccc(C(=O)O)cc3)cc(C)c2c1	9	i	-8	-5	-6	-7	7	3
80	C=CCC1(CC=C)CCCN1C(=O)Cn1nnnc1CN(C)C(C)C	-24	i	-4	0	2	-15	18	2
81	COc1ccc(-c2noc(-c3ccccc3C(=O)N3CCOCC3)n2)cc1	1	i	-7	-6	0	2	-8	-8
